From PubChem BioAssay
Rango-impB inh: inhibitors of Rango-importin beta complex formation; Q14974; Rango CFP/YFP FRET sensor + importin beta, 45 min; Potency, µM (highest dose often 92.2 µM), without a hit: top-dose inhibition of complex formation; 0.031% of 340,000 active; AID 540263; active = rising FRET ratio curve, often small or poorly fitted; inconclusive = mostly compound fluorescence or quenching in the first reads; inactive = flat curves in all reads;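 also: potency is read from the fitted curve at half-maximal effect; 0% = DMSO wells and 100% = buffer wells lacking importin beta; nearly all actives have a fitted effect of over 15% in size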
Target sequence (Q14974 whole entry, looked up): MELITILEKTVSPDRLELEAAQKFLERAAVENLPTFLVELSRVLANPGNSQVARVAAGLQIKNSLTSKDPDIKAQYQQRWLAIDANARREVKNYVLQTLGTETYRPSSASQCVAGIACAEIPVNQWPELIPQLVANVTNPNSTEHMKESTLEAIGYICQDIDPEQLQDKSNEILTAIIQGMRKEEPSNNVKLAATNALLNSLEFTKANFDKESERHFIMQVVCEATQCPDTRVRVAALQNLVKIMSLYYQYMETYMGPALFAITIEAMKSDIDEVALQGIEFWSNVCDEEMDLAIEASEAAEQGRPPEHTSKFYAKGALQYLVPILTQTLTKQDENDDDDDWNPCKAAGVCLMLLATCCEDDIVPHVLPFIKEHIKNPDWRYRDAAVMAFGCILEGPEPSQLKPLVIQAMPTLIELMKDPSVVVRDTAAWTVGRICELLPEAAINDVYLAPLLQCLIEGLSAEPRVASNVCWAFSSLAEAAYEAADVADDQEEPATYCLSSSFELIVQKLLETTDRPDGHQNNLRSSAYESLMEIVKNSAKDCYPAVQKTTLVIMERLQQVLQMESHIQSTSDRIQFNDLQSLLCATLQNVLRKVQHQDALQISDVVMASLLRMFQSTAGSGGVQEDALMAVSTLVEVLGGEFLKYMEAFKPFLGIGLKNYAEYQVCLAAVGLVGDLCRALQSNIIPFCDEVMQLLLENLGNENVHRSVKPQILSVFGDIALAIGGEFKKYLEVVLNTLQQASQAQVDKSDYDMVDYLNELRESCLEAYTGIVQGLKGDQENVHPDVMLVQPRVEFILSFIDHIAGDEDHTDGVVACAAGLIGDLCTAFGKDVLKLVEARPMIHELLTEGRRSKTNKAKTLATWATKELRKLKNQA
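FRET biosensor (snurportin 1 IBB flanked by EYFP and cerulean), 50 nM, with compound 5 min, then 0.125 microM importin beta in PBS, 1 mM DTT, 0.02% Tween-20, 0.1% BSA. CFP/YFP ratio read after 45 min at room temperature; pre-read flags interference.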
miR-21 FLuc: raises the signal of a miR-21 reporter. 340,000 tested, under 10 active. HeLa miR-21 FLuc reporter, luciferase, 48 h. Potency, µM (doses to about 38.3 µM), for the others: at the highest dose reporter change, positive = more light; active = well fitted rising curve with a large enough effect; inconclusive = small, poorly fitted or top-dose-only effect; inactive = no such curve, though single readings can be large or run the other way;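 also: % of control where 0% means no effect; miR-21 action dims this reporter so a rising signal means less miR-21 action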
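Using DMEM plus 10% FBS, HeLa miR-21-FLuc cells are incubated with test compounds (final up to about 40uM) for 48 hours; firefly luciferase signal is then imaged following reagent-mediated lysis.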
Rango dissoc inh: prevents RanGTP from dissociating the Rango-importin beta complex; Biochemical FRET Rango-importin beta, RanGTP-induced dissociation; Potency, µM (highest dose often 46.1 µM), inactives show top-dose activity change, negative = inhibition; 0.071% of 340,000 active; AID 540253; active means falling FRET ratio curve, often poorly fitted, with flat reads before Ran was added; inconclusive means other falling curves, or compound fluorescence or quenching; inactive means flat or rising ratio curve;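 also: potency is read from the fitted curve at half-maximal effect; % of control where 0% means no effect; nearly all actives have a fitted effect of over 45% in size; -100% = wells without RanGTP and RCC1; the record marks most hits as doubtful in a second field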
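Two FRET readings bracket the reaction: one 5 min after compound meets Rango–importin beta, another 45 min after RanGTP-RCC1 (0.6 uM Ran, 0.2 uM RCC1, 2 mM GTP) is added. Only the second defines inhibition.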
GLA inh pH 4.5: inhibitors of human alpha-galactosidase A at pH 4.5; purified enzyme, 4-MU-alpha-Gal fluorescence, pH 4.5; P06280; activity change, negative = inhibition, % at 105 µM; 230,000 tested, under 10 active; inconclusive = small, poorly fitted or top-dose-only inhibition, or a rising curve; inactive = flat fitted curve, though single readings scatter; no compound was filed as active;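 also: 0% = full activity with enzyme and -100% = basal without enzyme; dose as in the result columns while the protocol names 77 µM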
Active calls of the source: *; ? = inconclusive; . = not tested or not shown; & = joins results of further samples; [ ] = dose if it differs, or a comment.

Values in the order – Rango-impB inh, miR-21 FLuc, Rango dissoc inh, GLA inh pH 4.5
COCCN(Cc1ccccc1)C(=O)c1ccc2c(c1)NC(=O)CS2
  -0.1%, ., 4%, .
O=C(CSc1nc(-c2ccccc2)nc2c1Cc1ccccc1O2)Nc1ccc(C(=O)O)cc1
  ?, -4%, ?, -3
Cc1sc2nc(CN3CCOCC3)nc(N3CCN(S(=O)(=O)c4ccccc4)CC3)c2c1C
  -0.6%, ., -6%, .
CCOC(=O)c1cccc(NC(=O)CCc2nc(-c3ccc(C)cc3)no2)c1
  1.2%, 28%, -8%, 1
C/C(=N\NC(=O)Cc1c[nH]c2ccccc12)c1ccc2ccccc2c1
  3.5%, -37%, -7%, -19
NS(=O)(=O)c1cnccc1Nc1cccc(Br)c1
  0.7%, ., -7%, .
Cc1ccc(S(=O)(=O)N2[C@@H](c3ccccc3F)C(C(=O)O)=CC[C@H]2c2ccc(C(C)C)cc2)cc1
  -2.9%, ., -7%, .
CCOC(=O)C1=CNS(=O)(=O)NC1c1ccc(Br)cc1F (stereo not given)
  5.6%, ., 12%, .
CC(C)CNC(CC(=O)O)c1ccccc1 (stereo not given)
  -2.2%, 3%, 9%, -5[21.1 µM]
Cc1cc(C)n(-c2ccc(C(=O)OCC(=O)Nc3ccc(Cl)c(S(=O)(=O)N(C)C)c3)cc2)n1
  1.6%, -1%, -9%, -5
Oc1ccc(-c2nc3ccccn3c2NCc2ccco2)cc1
  -2.5%, -10%, 2%, -2
CCc1nn2cc(-c3ccccc3)nc2s1
  -2.2%, 14%, 11%, 3
Cc1nn(C)cc1CN1CCC(n2nccc2NC(=O)CCCc2ccccc2)CC1
  -0.6%, -2%, -2%, .
CCNC(=S)N1CCn2cccc2C1c1ccc(F)cc1 (stereo not given)
  -2.0%, 4%, -9%, -5
Cc1c(C(=O)Nc2c(N)nc(SCC(=O)NCC3CCCO3)[nH]c2=O)cccc1[N+](=O)[O-] (stereo not given)
  -0.8%, -2%, 2%, .
Cc1ccsc1CN(C)C(=O)c1cc(S(=O)(=O)N2CCOCC2)ccc1N1CCCC1
  0.8%, ., ?, .
Cc1cccc(NC(=O)CCN2CC(C)OC(C)C2)c1 (stereo not given)
  -0.9%, -2%, 19%, 7
FC(F)C(F)(F)c1cc(-c2ccc(Cl)cc2)n[nH]1
  -0.8%, -20%, 3%, -18
CC1=[N+](C)N(c2ccccc2)C(=O)C1N=Cc1ccccc1Cl (stereo not given)
  -4.9%, -3%, -7%, -1
CCC1=C2CC[C@H]3C(=O)NC(=O)[C@H]3[C@H]2[C@@]2(Cc3ccccc3)C(=NCC(=O)OC)OC(=O)N2C1=O
  -0.3%, -1%, 10%, -12&0

A few values from the entries so far.
CCOC(=O)c1cccc(NC(=O)CCc2nc(-c3ccc(C)cc3)no2)c1 – Rango-impB inh = 1.2%
Cc1c(C(=O)Nc2c(N)nc(SCC(=O)NCC3CCCO3)[nH]c2=O)cccc1[N+](=O)[O-] (stereo not given) – Rango dissoc inh = 2%

Next part:
Values in the order – Rango-impB inh, miR-21 FLuc, Rango dissoc inh, GLA inh pH 4.5
CN1CCN(NC(=O)c2cccc(Br)c2)CC1
  -0.6%, -5%, -9%, -1
CC1CN(Cc2cc(=O)[nH]c(C3CC3)n2)CC(C)O1 (stereo not given)
  -1.3%, -9%, -2%, -3
CCCNS(=O)(=O)c1ccc(OC)c(Cl)c1Cl
  4.5%, -10%, 36%, 7
Cc1ccc(C(=O)N2CCN(c3ccccc3F)CC2)cc1NC1=NC2CS(=O)(=O)CC2S1 (stereo not given)
  0.2%, 3%, -2%, .
Cc1ccc(-c2nc(CSc3nc4ccccc4c(=O)n3C)cs2)cc1
  0.1%, -6%, 2%, -6
C/C(=N/OC(=O)C1CC1c1ccccc1)c1ccccc1 (stereo not given)
  0.5%, -7%, -13%, -2
COc1ccc(NC(=O)CCS(=O)(=O)c2ccc(OC)cc2)cc1
  4.6%, -8%, 0%, 11
CN1CCc2cccc3c2C1Cc1ccc(O)c(O)c1-3 (stereo not given)
  -0.2%, ?, -7%, -3&1
CC1CCCC(NC(=O)Cn2cc([N+](=O)[O-])ccc2=O)C1C (stereo not given)
  -0.7%, ., 3%, .
Nc1nonc1-n1nnc(C(=O)N/N=C/c2ccc(Cl)cc2Cl)c1CN1CCCC1
  -0.3%, 4%, 2%, .
CSCCC(=O)N1CCCC(N(C)CCc2ccccc2)C1 (stereo not given)
  -1.7%, -1%, 19%, .
CCOC(=O)c1ccc(Nc2cc(C)nc(-c3ccccc3O)n2)cc1
  -0.5%, 5%, -7%, -12
COC(=O)c1cccc(NC(=O)CCCN2C(=O)NC3(CCCC3)C2=O)c1
  4.1%, ., 0%, .
CCC1=C(OC(=O)N(CC)CC)N2C(=O)OC(=NCC(=O)OC)[C@]2(Cc2ccccc2)[C@H]2C1=CC[C@H]1C(=O)N(CC(=O)OC)C(=O)[C@H]12
  1.5%, 0%, -12%, 1&4
COCC(=O)N1CCC(Oc2ccc(C(=O)N3CCCCCCC3)cc2)CC1
  -1.1%, -9%, 11%, .
COC(=O)c1ccccc1NC(=O)N1CCN(Cc2ccco2)CC1
  -5.8%, 1%, -12%, -1
CCCCN1C(=N)N([C@@H](CCC)CN2CCC[C@H]2CN2C(N)=NC[C@@H]2Cc2ccccc2)C[C@H]1[C@H](C)CC
  -0.5%, ., -7%, .
CC(=O)Nc1ccc(NC(=O)Cn2c(-c3ccc(F)cc3)cnc2SCC(=O)Nc2c(C)cccc2C)cc1
  -0.1%, -2%, -4%, 3
CN(C(=O)c1ccc(NC(=O)Cc2ccc(NC(=O)C3CCN(C(=O)C4CCCC4)CC3)cc2)cc1)C1CC1
  1.6%, ., 1%, .
CCOc1ccc(N2C(=O)C3C4C=CC([C@H]5CC45)[C@@H]3C2=O)cc1 (stereo not given in full)
  -0.9%, -13%, -1%, .

(cont.)
| smiles | Rango-impB inh | miR-21 FLuc | Rango dissoc inh | GLA inh pH 4.5 |
| --- | --- | --- | --- | --- |
| COc1ccc(-n2c(SCC(=O)NC3CCCCC3)nc3ccsc3c2=O)cc1 | -0.2% | -3% | 8% | 6 |
| COc1ccc(NC(=O)C(=O)NCCC2CCCCN2S(=O)(=O)c2cccs2)cc1 (stereo not given) | -0.8% | . | 0% | . |
| N#C/C(=C\c1c[nH]c2ccccc12)C(=O)NC1CCCC1 | -3.1% | -49% | -12% | . |
| COC(=O)C(O)(CC(=O)Nc1cc(Cl)ccc1Cl)C(F)(F)F (stereo not given) | 0.6% | -1% | 1% | -3 |
| Cc1ccccc1NC(=O)/C(C#N)=C\c1cccnc1 | 1.4% | -5% | -10% | -5 |
| CCCC(=O)Nc1nnc(CCc2ccccc2)s1 | -1.1% | -9% | -4% | . |
| CCOc1ccc(C2Nc3cccc4cccc(c34)N2)cc1OC | 0.0% | -1% | -1% | -6 |
| Cn1c2ccccc2c(=O)c2ccc(F)cc21 | ? | -44% | ? | . |
| Cc1ccc(S(=O)(=O)N(CCCN2CCCC2=O)Cc2cc3c(C)ccc(C)c3[nH]c2=O)cc1 | 0.7% | -1% | 5% | 2 |
| CC(=O)c1cccc(NC(=O)C2=CN3CCS(=O)(=O)N=C3C=C2)c1 | -0.2% | . | -3% | . |
| CCOc1ccc(NC(=O)/C(C=Nc2ccccc2)=C(\C)O)cc1 | -1.6% | -25% | 15% | . |
| CCOC(=O)c1sc(N)c(C(N)=O)c1C | 3.3% | -7% | -6% | 1 |
| O=C(CC1C[C@H](C(=O)N2CCOCC2)[C@@]2(CCC3CCCC3)c3[nH]c4ccccc4c3CCN2C1=O)NCc1ccco1 (stereo not given in full) | 0.4% | . | -11% | . |
| CCC1Oc2ccc(C)cc2N(CC(=O)NCc2cccs2)C1=O (stereo not given) | -2.1% | -4% | -1% | -1 |
| COc1ccc(NC(=O)C2(c3ccc(NC(=O)c4ccc(C)cc4)cc3)CCCC2)cc1 | 0.0% | 0% | 17% | 5 |
| CC(C)c1cc(CN2CCN(Cc3ccc(F)c(F)c3)C(CCO)C2)[nH]n1 (stereo not given) | -0.7% | -2% | 1% | 9 |
| Cc1nn(Cc2ccccc2)c(C)c1NC(=O)c1noc2c1CCc1ccccc1-2 | -0.2% | 11% | 25% | 0 |
| CCOC(=O)CNC(=O)c1c(C)nn(-c2ccccc2)c1Cl | 0.3% | -15% | 1% | 0 |
| Fc1ccc(NC(=S)NCCN2CCOCC2)c(F)c1F | 2.4% | -12% | 3% | -3 |
| Cc1ccc(-n2c3c(cc(C(=O)NC4CCSC4=O)c2=O)C(=O)CCC3)cc1 (stereo not given) | 0.5% | -2% | 3% | -2 |
| O=C(Oc1c(Cl)cc(Cl)c2cccnc12)c1cccs1 | -0.4% | 29% | -8% | -5 |
| CCC(=O)N=c1sc2cc([N+](=O)[O-])ccc2n1CCOC | -0.6% | -5% | -9% | 0 |
| CCOc1ccc(CCNC(=O)c2ccc(CS(=O)Cc3cccc(Cl)c3)o2)cc1 (stereo not given) | 0.6% | 7%&15% | -9% | . |
| Cc1cccc(NC(=O)CSc2ccc(-c3ccc4c(c3)OCO4)nn2)c1C | -0.6% | 0% | 2% | -2 |
| Cn1c(N)c(C(=O)COC(=O)C2CC(=O)N(Cc3ccccc3)C2)c(=O)n(C)c1=O (stereo not given) | -3.2% | 3% | -22% | 17 |
| CC1CCCN(C(=O)c2nn(C)c3c2CSc2ccccc2-3)C1 (stereo not given) | 5.0% | -19% | 8% | . |
| COc1ccc(NS(=O)(=O)c2cccc(C(=O)NNC(=O)CNC(=O)c3ccccc3F)c2)cc1 | -0.8% | . | 26% | . |
| CC(C)(C)OC(=O)C(C)(C)O/N=C(\C(=O)O)c1csc(N)n1 | -4.0% | -1% | 14% | 3 |
| Cc1cccc(-n2nnnc2SCC(=O)NCC2CCCO2)c1 (stereo not given) | 1.6% | -5% | 5% | -4 |
| Cc1nnc(Sc2nc3c(c(=O)[nH]c(=O)n3C)n2Cc2ccccc2)s1 | 3.0% | -4% | 3% | -1 |

Reprinted from the part before: three entries; new compounds follow.
| smiles | Rango-impB inh | miR-21 FLuc | Rango dissoc inh | GLA inh pH 4.5 |
| --- | --- | --- | --- | --- |
| CC(C)(C)OC(=O)C(C)(C)O/N=C(\C(=O)O)c1csc(N)n1 | -4.0% | -1% | 14% | 3 |
| Cc1cccc(-n2nnnc2SCC(=O)NCC2CCCO2)c1 (stereo not given) | 1.6% | -5% | 5% | -4 |
| Cc1nnc(Sc2nc3c(c(=O)[nH]c(=O)n3C)n2Cc2ccccc2)s1 | 3.0% | -4% | 3% | -1 |
| O=C(c1ccc(S(=O)(=O)N2CCCCC2)cc1)N1CCN=C1SCc1cccnc1 | -1.8% | 0% | 13% | -9 |
| O=C(O)CCC(=O)NNC(=O)COc1cccc(Cl)c1 | -1.8% | -2% | 3% | -5 |
| O=C(OCC(=O)N1CCN(C(=O)c2ccco2)CC1)c1ccccc1OCc1ccc(Cl)cc1 | 6.0% | 1% | -14% | -29 |
| COC(=O)/C=c1\[nH]c2nnc(C)n2c1=O | 4.0% | 0% | 3% | 9 |
| CC12CCC(O)CC1=CCC1C2CCC2(C)C1CCC21CCC(=O)O1 (stereo not given) | -4.6% | -7% | 15% | -3 |
| Cc1cccc(C)c1NC(=O)/C(C#N)=C/c1ccsc1 | -3.4% | -1% | -23% | -5 |
| COC(=O)c1ccc2c(=O)[nH]c(CSc3nc(C)cs3)nc2c1 | -0.8% | -49% | -14% | -10 |
| CC(C)(C)OC(=O)NC(Cc1ccccc1)C(=O)NC(CSC1CCCCO1)C(=O)NN (stereo not given) | 3.0% | -2% | -17% | . |

Pulled one by one from the entries so far, 4 records:
| smiles | Rango-impB inh | miR-21 FLuc | Rango dissoc inh | GLA inh pH 4.5 |
| --- | --- | --- | --- | --- |
| O=C(O)CCC(=O)NNC(=O)COc1cccc(Cl)c1 | -1.8% | -2% | 3% | -5 |
| COC(=O)/C=c1\[nH]c2nnc(C)n2c1=O | 4.0% | 0% | 3% | 9 |
| COC(=O)c1ccc2c(=O)[nH]c(CSc3nc(C)cs3)nc2c1 | -0.8% | -49% | -14% | -10 |
| CC12CCC(O)CC1=CCC1C2CCC2(C)C1CCC21CCC(=O)O1 (stereo not given) | -4.6% | -7% | 15% | -3 |

This is a subset, so the mix of outcomes need not match the whole.
